High-throughput results deposited in PubChem by several laboratories.
Mtb hypoxia inh – PubChem AID 1159583; M. tuberculosis hypoxia-regulated fluorescent reporter, fluorescence; fluorescence inhibition, % (no concentration beside the values); 300,000 tested, 0.1% active;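 active means 35 to 45% if threefold the growth effect, above 45% if 1.5-fold the growth effect; inactive means the rest, general growth blockers included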;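 further: wells of about 50 µL received 100 nL stock; 0% = vehicle wells and 100% = reference inhibitor wells; whole bacteria with a GFP reporter of the hypoxia response; strong numbers were not always called active; many hits fall short of the cut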
ugtP null kill – growth inhibition of ugtP-null S. aureus, primary screen, RN4220 ugtP deletion, OD600. 16 h; some inactives read as strong as hits. growth inhibition, % (test concentration not listed). 330,000 tested, 0.54% active. AID 1259309, 2017;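 active means z-score under -3 and OD600 up to 0.15 on both plates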;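 further: plate controls were untreated wells for no effect and antibiotic for full effect; wells of about 80 µL received 100 nL stock; the first replicate is given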
BJeLR viability – MLPCN primary cell-based screen for lethality selective to Ras in HRASV12 cells | BJeLR (HRASV12) viability, CellTiter-Glo ATP luminescence, 48 h; reference of the scale not given here | inhibition, % (no concentration beside the values) | 300,000 tested, 0.17% active;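 active means replicate mean above 50%; inconclusive means above 50% but judged a plate artefact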;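 further: 50 nL library stock added to about 25 µL; numbers are from one replicate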
Sa RN4220 lethal – growth inhibition of S. aureus RN4220, primary screen, OD600; 16 h; inhibition, % (no concentration beside the values); 330,000 tested, 0.33% active; AID 1259311, 2017;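 active means z-score of -3 or lower and OD600 up to 0.18 on both plates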;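 further: plate controls were untreated cells for no effect and reference antibiotic for full effect; stock transfer was 100 nL into about 80 µL; one replicate is shown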
Bead autofluor – flagged as autofluorescent in microsphere protease counterscreen. 360,000 tested, 3.1% active. compound autofluorescence counterscreen, microsphere flow cytometry; active compounds read high. AID 624483. fluorescence intensity (test concentration not listed);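 active means at least 3 SD above the mean of all compounds, about 16000 in these data; inconclusive means too few beads counted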;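 further: 100 nL of 1 mM stock went into each well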
PrP UTR inh – inhibition of PrP 5' UTR reporter expression | cell-based PrP 5' UTR mRNA reporter, plate reader | inhibition, % (no concentration beside the values) | 340,000 tested, 0.35% active | AID 488862, 2010;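 active means every replicate at 50% or more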;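 further: 0 = median of the neutral control wells; tested in H4 reporter cells; numbers are from one replicate; inactives centre near -14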
Mtb hypoxia inh growth – further read-out of Mtb hypoxia inh, marked with its call; growth inhibition, %; measured here: M. tuberculosis growth (absorbance);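 0% = vehicle and 100% = reference antibiotic; read after six days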
Numbers without * were called inactive; ? = inconclusive; / = no result given.

SMILES | Mtb hypoxia inh | Mtb hypoxia inh growth | ugtP null kill | BJeLR viability | Sa RN4220 lethal | Bead autofluor | PrP UTR inh
Cc1ccccc1-c1nc(CN2CCC(C(=O)NC3CCN(Cc4ccccc4)CC3)CC2)c(C)o1 | 8 | 10 | -9 | 15 | -11 | 6380 | -17
CC[C@@H](C)[C@@H]1CN([C@@H](CN2CCC[C@H]2CN2C(N)=NC[C@H]2C(C)C)C(C)C)C(=N)N1CCc1ccc(Cl)c(Cl)c1 | / | / | 101* | / | 101* | 2927 | -2
CN1CCc2c(sc3nc(SCC(=O)NCc4ccco4)n(-c4ccccc4)c(=O)c23)C1 | -21 | -17 | 3 | -1 | 2.2 | 7514 | -31
Cc1ccc(OC(=O)COc2ccccc2C)c(-n2nc3ccccc3n2)c1 | 5 | 10 | 21 | 2 | 4.3 | 5981 | -74
CCCC1(CCC)NC(=O)N(CC(=O)c2cc(C)n(-c3ccc4c(c3)OCO4)c2C)C1=O | -7 | 1 | -7 | -14 | -1.4 | 2670 | -27
CCN1CCN(C(=O)c2ccccc2Nc2ccc(SC(F)F)cc2)CC1 | -5 | 7 | -5 | 1 | 8.4 | 2398 | -12
CSc1ccc(CN(C)C(=O)C23CC4CC(CC(Cl)(C4)C2)C3)cc1 | 6 | -2 | 4 | -5 | -2.7 | 6348 | -10
CCOC(=O)C1=C(C)N(C[C@@H]2CC[C@@H](Cc3ccc(-c4ccccc4)cc3)O2)C(=O)NC1c1ccc([N+](=O)[O-])cc1 (some centres not stated) | -3 | -4 | -9 | / | -4.0 | 3677 | 42
Cc1cc(CNC(=O)COc2ccc([N+](=O)[O-])cc2)c2ccccc2n1 | 5 | 14 | -1 | 7 | 13 | 4889 | -27
CC1CN(C(C)CO)C(=O)c2cccc(NC(=O)Cc3ccccc3)c2OC1CN(C)Cc1ccncc1 (configuration not stated) | 5 | 13 | -1 | / | 1.3 | / | /
COc1cccc(C=NNC(=S)NCCc2ccccc2)c1 | 17 | 3 | -6 | / | 8.0 | / | /
O=C(NC1CCCCCC1)C1c2ccccc2C(=O)N1Cc1cccnc1 (configuration not stated) | 8 | 6 | 3 | 0 | 1.9 | 10341 | -14
COc1ccc(C(=O)Nc2ccccc2C(=O)NC(C(=O)NCc2ccco2)C(C)C)cc1 (configuration not stated) | / | / | -1 | 2 | 1.4 | 2765 | -4
COc1ccc(CNC(=O)c2cccnc2Sc2ccc(C)c(C)c2)cc1 | 6 | 3 | 1 | 8 | 4.9 | 2776 | 1
CC(=NNc1ccccn1)c1cccs1 | -3 | -15 | 2 | / | -0.8 | / | /
CCOc1ccc(-n2cnc3c(=O)[nH]c(N)nc32)cc1 | 4 | 3 | 7 | -9 | 1.6 | 5271 | -34
Cc1ccc(C2SCCN2C(=O)c2ccc([N+](=O)[O-])cc2)cc1 (configuration not stated) | 7 | 5 | 2 | 3 | 9.8 | 1866 | -17
Cc1ccc(S(=O)(=O)c2c(C)cc(C)[nH]c2=O)c(C)c1 | 9 | -12 | 9 | 10 | 2.6 | 2905 | -16
CC(=O)c1cccc(NC(=S)NCCC2=CCCCC2)c1 | 14 | 7 | -17 | -5 | 4.6 | 3710 | -21
CCOC(=O)C1=NNC2(c3ccc(Cl)cc3)C(=O)N(c3ccc(C)cc3)C(=O)C12 (configuration not stated) | 2 | 3 | 16 | -19 | 2.0 | 2034 | -12
Cc1cccc(S(=O)(=O)C(C#N)c2nc3ccccc3nc2N2CCCC2)c1 (configuration not stated) | 24 | -25 | -5 | 7 | -18 | 3725 | -14
COc1ccccc1N1CCN(C2CCCN(S(=O)(=O)c3ccccc3)C2)CC1 (configuration not stated) | -10 | -11 | -1 | -4 | 3.3 | ? | -10
COCCn1c(=NC(=O)c2ccc3c(c2)OCCO3)sc2cc(S(N)(=O)=O)ccc21 | 1 | 2 | -3 | -1 | 5.0 | 3028 | 2
Cc1ccccc1/C=C/c1nc2ccccc2c(=O)n1Cc1ccccc1 | 2 | 5 | 5 | -3 | -6.9 | 2605 | -19
COc1ccc(C=NN=Cc2ccc(OC)c(OC)c2)cc1OC | 6 | -7 | 2 | / | -1.1 | / | /
COc1cc(/C=C/C(=O)O)cc(S(=O)(=O)NCCO)c1OC | / | / | / | 1 | / | 9480 | -18
O=C(c1ccccn1)N(c1ccccc1)C1(C(=O)NC2CCCCC2)CCCCC1 | 13 | 2 | 3 | 0 | 0.0 | 3849 | 29
CC(Oc1ccccc1)c1ccnn1S(C)(=O)=O (configuration not stated) | / | / | 3 | -4 | 1.5 | 3484 | -4
O=C1CN(c2ccccc2F)C(=O)CN1c1ccccc1F | 21 | 10 | 5 | 1 | 2.7 | 3848 | -40
CN1CCC2(CC1)N=C(c1ccc(F)cc1)C(=S)N2 | 3 | 19 | 2 | 1 | -0.6 | 3299 | -13
O=C(NCc1cn2ccccc2n1)c1ccc(Br)o1 | 3 | 1 | 17 | -4 | 14 | 4499 | 2
CCOc1cc(/C=N/NC(=O)c2cc(-c3cccnc3)nc3ccccc23)ccc1O | / | / | / | -15 | / | 3474 | -19
CC(C(=O)NC(C)(C)C)N1C(=O)c2cccc3cccc(c23)C1=O (configuration not stated) | 3 | 6 | 2 | 1 | 2.3 | 4754 | -6
O=C(Nc1nccs1)c1cccc(S(=O)(=O)N2CCCC2)c1 | 2 | 6 | 6 | 6 | -0.6 | ? | -16
C=CCc1cc(C=C2C(=O)NC(=O)NC2=O)cc(OC)c1OCc1ccc(C(=O)O)cc1 | / | / | / | 2 | / | 3962 | -35
O=[N+]([O-])c1ccc(S(=O)(=O)NCCN2CCOCC2)cc1 | -1 | 6 | 2 | -4 | 21 | 4583 | -21

The final four compounds of the part before open the next one:
SMILES | Mtb hypoxia inh | Mtb hypoxia inh growth | ugtP null kill | BJeLR viability | Sa RN4220 lethal | Bead autofluor | PrP UTR inh
CC(C(=O)NC(C)(C)C)N1C(=O)c2cccc3cccc(c23)C1=O (configuration not stated) | 3 | 6 | 2 | 1 | 2.3 | 4754 | -6
O=C(Nc1nccs1)c1cccc(S(=O)(=O)N2CCCC2)c1 | 2 | 6 | 6 | 6 | -0.6 | ? | -16
C=CCc1cc(C=C2C(=O)NC(=O)NC2=O)cc(OC)c1OCc1ccc(C(=O)O)cc1 | / | / | / | 2 | / | 3962 | -35
O=[N+]([O-])c1ccc(S(=O)(=O)NCCN2CCOCC2)cc1 | -1 | 6 | 2 | -4 | 21 | 4583 | -21
COc1ccc([N+](=O)[O-])cc1NC(=O)c1cccs1 | 2 | 11 | 4 | -6 | 2.7 | 4657 | -33
CCOC(=O)CNS(=O)(=O)c1cc(-c2nnc(Nc3ccc4c(c3)OCO4)c3ccccc23)ccc1C | / | / | / | -3 | / | 2237 | 0
CCC(=O)Nc1ccc2c(c1)OCCO2 | 4 | 12 | 2 | 7 | 2.1 | 4354 | 1
O=C(O)C1C2C=CC(C2)C1C(=O)NCCCN1CCOCC1 (configuration not stated) | 12 | 7 | -5 | 1 | 5.0 | 2830 | -19
O=C(O)C(Cc1ccccc1)N1C(=O)c2ccccc2C1=O (configuration not stated) | 11 | 2 | -7 | -7 | 4.0 | 9492 | -22
COCCCNC(=O)CCCC(=O)NCCCOC | -2 | 3 | 2 | 5 | -2.5 | 6584 | -3
COc1ccc(COc2cc(-c3cccc(OC)c3)nc3ccc(N)cc23)cc1 | / | / | / | 23 | / | 3926 | 54
CC(C)(C)c1nc2c(s1)CCc1onc(-c3ccc(Br)cc3)c1-2 | 1 | 2 | 30 | 0 | -3.3 | 3490 | -13
Nc1ncc2c(n1)-c1ccoc1CC2 | 6 | 0 | 14 | 4 | 7.1 | 3886 | /
Cc1cc(C(=O)NNc2ccc(F)cc2)no1 | 10 | 5 | 9 | 4 | 3.8 | / | -19
Cc1ccc([N+](=O)[O-])cc1NC(=S)NC(=O)c1ccco1 | 16 | 8 | 3 | 13 | 1.7 | 2183 | -9
CCn1cc(S(=O)(=O)Nc2ncccn2)cn1 | -2 | 3 | 1 | -3 | 0.0 | 4217 | -14
CC1CC(C)CN(S(=O)(=O)c2ccc(NC(=O)C3CSC4(C)CCC(=O)N34)cc2)C1 (configuration not stated) | -3 | 6 | -4 | -3 | 2.2 | 5675 | -11
O=S(=O)(c1cccc2nsnc12)N1CCc2ccccc2C1 | 11 | 14 | -3 | 5 | 2.9 | 21361* | -12
Cc1cc(C)cc(NS(=O)(=O)c2ccc(Oc3ncc(C(F)(F)F)cc3Cl)cc2)c1 | -9 | -1 | -30 | -22 | -3.0 | 4074 | -13
O=C(c1cc(-c2ccc(O)cc2)on1)N1CCN(c2ccc(F)cc2)CC1 | -12 | 12 | 13 | 4 | 19 | 5646 | -3
COc1cc2c(cc1OC)C(NC(=O)C(F)(F)F)C/C2=N\O (configuration not stated) | / | / | / | 9 | / | 4386 | -16
COc1cccc(NC(=O)CN(C)C(=O)CC2CCCC2)c1 | 4 | 4 | 4 | / | -1.5 | 6808 | -5
COc1cc(C(=O)NCC(=O)NN=Cc2ccccn2)cc(OC)c1OC | -2 | 4 | 4 | / | -1.9 | / | /
C#Cc1ccc([C@@H]2C=C(C(=O)N3CCN(Cc4ccc5c(c4)OCO5)CC3)O[C@H](OCC)[C@H]2CCCO)cc1 | / | / | / | 0 | / | 3058 | -3
CCn1cc(CNC(=O)NC2CCCCC2)c(C)n1 | 4 | 1 | 9 | -7 | 4.4 | 2500 | -47
CC1CC(C)CN(C(=O)c2cccc(N3C(=O)c4ccccc4C3=O)c2)C1 (configuration not stated) | 4 | 13 | 3 | / | 2.6 | ? | -22
O=C1CCCC2=C1C(Cc1ccccc1)C1=C(CCCC1=O)O2 | 14 | 7 | -7 | -11 | 7.6 | 9273 | -26
Cc1noc(C)c1S(=O)(=O)N1CCC(C(=O)N2CCN(Cc3ccc4c(c3)OCO4)CC2)CC1 | 7 | 2 | -2 | 6 | 6.0 | 2892 | -8
O=C(CCN1CCc2ccccc2C1)c1ccc2c(c1)OCCO2 | 6 | 5 | 8 | -5 | 3.2 | 4230 | -7
CCCNC(=O)Cn1c(=O)oc2ccccc21 | / | / | 1 | -9 | 2.7 | 2700 | -5
COC(=O)[C@H](Cc1ccccc1)NC(=O)NCCc1ccc(S(N)(=O)=O)cc1 | 12 | 15 | 0 | -22 | 4.7 | 9375 | -25
O=C(O)c1cc(-c2cccs2)[nH]n1 | 15 | 9 | 9 | 2 | 4.7 | 3575 | -14
Cc1ccc(-c2ccnc3c(Br)c(C)nn23)cc1 | 15 | 8 | 15 | 3 | 10 | 3114 | -8
O=C1CCCN1c1ccc(S(=O)(=O)NCCc2ccc(Cl)cc2)cc1 | -2 | 5 | 2 | 17 | 3.6 | 10989 | -4
COC(=O)c1ccc(NCCC(=O)O)cc1 | 14 | 5 | 10 | -5 | 4.4 | 1960 | -31
COc1ccc(CC(=O)OCC(=O)Nc2cc(S(=O)(=O)N3CCOCC3)ccc2N2CCCC2)cc1 | 10 | 6 | 5 | 3 | 5.1 | 4370 | -13
O=C(CN1CCN(CC(=O)Nc2ccc3c(c2)OC2(CCCCC2)O3)CC1)Nc1cccc(F)c1 | -2 | -6 | 1 | / | 2.4 | 4718 | 8
CCN1CCN(Cc2coc3ccc(C)cc3c2=O)CC1 | -7 | -7 | -1 | -16 | -0.2 | 10899 | -24
CCOc1ccc(C(=O)NCC(=O)NC(C)c2ccc(-n3ccnc3)cc2)cc1OCC (configuration not stated) | 7 | -19 | 8 | 10 | 2.5 | 5862 | -19
Cc1ccc(C2=NS(=O)(=O)N(C)C(C(=O)NCc3ccccc3)=C2)cc1 | 5 | -1 | -10 | -4 | -4.1 | 5289 | -15
COC(=O)c1cccc(NC(=O)/C=C/c2ccc3c(c2)OCO3)c1 | 1 | 1 | 4 | -2 | 3.7 | 1994 | 65*
Cc1ccc(NC(=O)C2C3CCCCC32)cc1[N+](=O)[O-] (configuration not stated) | -2 | 2 | 7 | -4 | 5.1 | 3435 | -48

Single records, as listed above. Screens in order: Mtb hypoxia inh, Mtb hypoxia inh growth, ugtP null kill, BJeLR viability, Sa RN4220 lethal, Bead autofluor, PrP UTR inh
O=[N+]([O-])c1ccc(S(=O)(=O)NCCN2CCOCC2)cc1 is listed with -1, 6, 2, -4, 21, 4583, -21
CCn1cc(S(=O)(=O)Nc2ncccn2)cn1 is listed with -2, 3, 1, -3, 0.0, 4217, -14

Rows were taken by chance, and some 4% of all compounds hit somewhere here.
